# CCR6 antag: blocks CCL20-driven beta-arrestin recruitment at human CCR6. CHO-K1 CCR6 PathHunter beta-arrestin, luminescence, CCL20-stimulated. 0.49% of 340,000 active. P51684. inhibition, % at 20 µM. AID 493098;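 active means compounds whose inhibition of the agonist-driven luminescence signal at 20 µM reaches about 50%, limit read from the data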;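 further: cells stimulated with CCL20 at 14 nM final; plate controls were DMSO with CCL20 for no effect and DMSO without agonist for full effect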
# Target sequence (P51684 whole entry, looked up): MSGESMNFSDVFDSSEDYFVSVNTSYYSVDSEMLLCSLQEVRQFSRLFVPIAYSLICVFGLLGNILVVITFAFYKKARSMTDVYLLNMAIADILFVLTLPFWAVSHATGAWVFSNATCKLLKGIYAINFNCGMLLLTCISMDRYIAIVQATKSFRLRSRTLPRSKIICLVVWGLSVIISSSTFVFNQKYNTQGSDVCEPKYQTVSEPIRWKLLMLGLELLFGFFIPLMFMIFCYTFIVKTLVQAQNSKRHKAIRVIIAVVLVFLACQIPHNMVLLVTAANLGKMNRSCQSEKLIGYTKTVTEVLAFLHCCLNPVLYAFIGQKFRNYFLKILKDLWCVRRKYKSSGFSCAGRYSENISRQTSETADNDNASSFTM
# UBC13 polyUb: inhibitors of human UBC13 polyubiquitin chain formation | P61088 | TR-FRET | inhibition, % at 20 µM | 0.47% of 330,000 active | AID 485273; in the data active means inhibition above about 45%, passing the limit was not always enough
# Gli-Sufu block: antagonists of Gli-Sufu signaling. Sufu-KO-LIGHT fibroblasts, Gli luciferase reporter luminescence. inhibition, % at 5 µM. 0.74% of 340,000 active. AID 588413;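 active means inhibition above about 55%, limit read from the data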;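 further: 0% = DMSO-treated cells and 100% = wells with medium but no cells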
# EBI2 block: antagonists of human EBI2 receptor; EBI2 beta-arrestin recruitment, luminescence, 7a,25-OHC stimulated; inhibition, % at 5 µM; 0.81% of 360,000 active; in the data active means inhibition above about 38%;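 further: enzyme fragment complementation signal reports receptor beta-arrestin coupling in cells; 0% = agonist plus DMSO wells and 100% = wells without agonist; some results beyond the cut were filed as inactive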
# Numbers without * were called inactive; · = not tested or not shown; & = joins results of further samples. The list is partial (hit frequency here may not be typical).
# Every second line gives: CCR6 antag	EBI2 block	UBC13 polyUb	Gli-Sufu block
[1] CC(C)OC(=O)C(C)(C)Oc1ccc(C(=O)c2ccc(Cl)cc2)cc1
    22.5	31.2	18.1	-0.5
[2] CN1CCc2cccc3c2[C@@H]1Cc1ccc(O)c(O)c1-3
    6.7	0.1	7.2	8.1
[3] Cn1c(=O)c2[nH]cnc2n(C)c1=O
    -2.5	-2.6	14.6	-5.2
[4] CNCC(=O)O
    -11.7	1.2	-4.2	-2.3
[5] COC1=CC(=O)CC(C)C12Oc1c(Cl)c(OC)cc(OC)c1C2=O (stereo not given)
    10.2	3.2	-0.4	-2.3
[6] CN1CCc2cccc3c2[C@H]1Cc1ccc(O)c(O)c1-3
    1.1&-6.1&10.0	-15.7&-6.9&-8.6	3.5&8.4&17.4	1.6&13.9&9.9
[7] CC(=O)Nc1c(I)c(NC(C)=O)c(I)c(C(=O)O)c1I
    -2.9&10.3	-3.8&3.1	-14.3&-6.1	-0.5&-5.9
[8] CC(=O)c1cccc([N+](=O)[O-])c1
    6.8	-1.5	0.9	0.9
[9] O=C(C1CCCCC1)N1CC(=O)N2CCc3ccccc3C2C1 (stereo not given)
    ·	·	11.4	·
[10] Nc1c(C(=O)NCc2ccc3c(c2)OCO3)c2nc3ccccc3nc2n1CCCN1CCOCC1
    -5.3	18.3	0.7	-6.1
[11] CC(C)NC[C@H](O)c1ccc(O)c(O)c1
    6.3	-7.7	10.7	2.2

# Four of these compounds, set out differently.
8. CC(=O)c1cccc([N+](=O)[O-])c1
  CCR6 antag: 6.8	EBI2 block: -1.5	UBC13 polyUb: 0.9	Gli-Sufu block: 0.9
6. CN1CCc2cccc3c2[C@H]1Cc1ccc(O)c(O)c1-3
  CCR6 antag: 1.1&-6.1&10.0	EBI2 block: -15.7&-6.9&-8.6	UBC13 polyUb: 3.5&8.4&17.4	Gli-Sufu block: 1.6&13.9&9.9
3. Cn1c(=O)c2[nH]cnc2n(C)c1=O
  CCR6 antag: -2.5	EBI2 block: -2.6	UBC13 polyUb: 14.6	Gli-Sufu block: -5.2
11. CC(C)NC[C@H](O)c1ccc(O)c(O)c1
  CCR6 antag: 6.3	EBI2 block: -7.7	UBC13 polyUb: 10.7	Gli-Sufu block: 2.2

# Compound activity from PubChem BioAssay.
